Screens (PubChem)
H5N1 antiviral – antiviral screen in MDCK cells, H5N1 avian flu; inhibition, % at 50 µM; cytopathic effect, luminescence, 72 h; stronger effect = higher value; no value below 0 was filed and about half of the inactive calls have no number; reference of the scale not given here; AID 740; 0.07% of 96,000 active; in the data active = inhibition above about 25%
The depositor's hits bear a star.

What do the screens show for `Cc1ccc(N(CC2=NCCN2)c2cccc(O)c2)cc1`?
H5N1 antiviral: inactive

What do the screens show for `CC(=O)CCCCn1c(=O)c2c(ncn2C)n(C)c1=O`?
H5N1 antiviral: 0.6

What do the screens show for `Cc1cccc2c1NC(=O)C2(c1ccc(O)cc1)c1ccc(O)cc1`?
H5N1 antiviral: 0.1

2 compounds picked at random from the list so far:
What do the screens show for `Cc1cccc2c1NC(=O)C2(c1ccc(O)cc1)c1ccc(O)cc1`?
H5N1 antiviral: 0.1

What do the screens show for `CC(=O)CCCCn1c(=O)c2c(ncn2C)n(C)c1=O`?
H5N1 antiviral: 0.6

Only part of the results is shown; count on the stated rates, not on these rows.
